# From PubChem
# gsp antag = antagonists of gsp mutant (McCune-Albright syndrome); gsp-mutant cells, cAMP HTRF, 30 min; control for the full effect not named in the record; 340,000 compounds, 0.4% hits; Potency, µM (doses to about 76.9 µM), for the others: at the top dose activity change, negative = inhibition, actives largely listed as inhibitors; active = falling curve of any shape with a large fitted effect; inconclusive = falling curve, mostly with a smaller effect; inactive = flat or rising curve; cell line not stated here;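 also: intracellular cAMP measured with PDE inhibitor Ro 20-1724 present during compound exposure; potency is read from the fitted curve at half-maximal effect; % is scaled to controls: 0 for no effect and ±100 for the full control effect; nearly all actives have a fitted effect of over 65% in size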
#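 G418-selected cells were plated in DMEM/10% FBS for 16-24 h at 37C, then treated with compounds plus the PDE inhibitor […] (300 uM solution added) for 30 min at 37C. Intracellular cAMP was measured by HTRF after 30 min lysis at room temperature.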
# gsp agonist = gsp mutant agonism; AID 624287; 340,000 compounds, 0.13% hits; gsp mutant cells, cAMP HTRF, 30 min; control for the full effect not named in the record; Potency, µM (top dose mostly 76.9 µM), inactives show at the top dose activation (cAMP increase), usual class: activators; active = well fitted activation curve with a large enough effect; inconclusive = small, poorly fitted or top-dose-only effect, or another doubt; inactive = no such curve, though single readings can be large or run the other way; cell line not stated here;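 also: phosphodiesterase inhibitor Ro 20-1724 added with compounds to block cAMP breakdown; potency is read from the fitted curve at half-maximal effect; nearly all actives have a fitted effect of over 60% in size; about a fifth of the inactives were tested at one dose only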
#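 Cells stably selected in G418 were plated at 2000/well, grown 16-24 hr, then given compounds in DMSO with the PDE inhibitor […] (300 uM solution added) for 30 min at 37C; cAMP was read by HTRF.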
# Sfp inh = inhibitors of Bacillus subtilis Sfp phosphopantetheinyl transferase; Q9F4F7; Biochemical Sfp PPTase activity, qHTS; Potency, µM, for the others: max response, negative = inhibition, actives largely listed as inhibitors; 310,000 compounds, 3.5% hits; active = well fitted inhibition curve with a large enough effect; inconclusive = small, poorly fitted or top-dose-only effect, or another doubt; inactive = no such curve, though single readings can be large or run the other way;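 also: the enzyme is Sfp with the accession as filed and its product quenches rhodamine fluorescence; potency is read from the fitted curve at half-maximal effect; 0% = enzyme reaction without inhibitor and -100% = no enzyme wells; top concentration of the series not given in the record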
#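 Reaction rates are the 30-min fluorescence difference (ex 525, em 598 nm) in wells containing 15 nM Sfp, 5 uM rhodamine-CoA and 12.5 uM BHQ-2-YbbR at pH 7.6 with 10 mM MgCl2.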
# TRPV1 PAM = potentiators of human vanilloid receptor 1 (TRPV1). Q8NER1. TRPV1-expressing cells, Fluo-8 calcium influx, capsaicin EC20 potentiation; host cell line not named in the record; control for the full effect not named in the record. potentiation, % at 8.33 µM. 320,000 compounds, 0.02% hits; active means potentiation above 80%; inconclusive means 30% to 80%; inactive means below 30%; also: 0% is about no effect
# Target sequence (Q8NER1 whole entry, looked up): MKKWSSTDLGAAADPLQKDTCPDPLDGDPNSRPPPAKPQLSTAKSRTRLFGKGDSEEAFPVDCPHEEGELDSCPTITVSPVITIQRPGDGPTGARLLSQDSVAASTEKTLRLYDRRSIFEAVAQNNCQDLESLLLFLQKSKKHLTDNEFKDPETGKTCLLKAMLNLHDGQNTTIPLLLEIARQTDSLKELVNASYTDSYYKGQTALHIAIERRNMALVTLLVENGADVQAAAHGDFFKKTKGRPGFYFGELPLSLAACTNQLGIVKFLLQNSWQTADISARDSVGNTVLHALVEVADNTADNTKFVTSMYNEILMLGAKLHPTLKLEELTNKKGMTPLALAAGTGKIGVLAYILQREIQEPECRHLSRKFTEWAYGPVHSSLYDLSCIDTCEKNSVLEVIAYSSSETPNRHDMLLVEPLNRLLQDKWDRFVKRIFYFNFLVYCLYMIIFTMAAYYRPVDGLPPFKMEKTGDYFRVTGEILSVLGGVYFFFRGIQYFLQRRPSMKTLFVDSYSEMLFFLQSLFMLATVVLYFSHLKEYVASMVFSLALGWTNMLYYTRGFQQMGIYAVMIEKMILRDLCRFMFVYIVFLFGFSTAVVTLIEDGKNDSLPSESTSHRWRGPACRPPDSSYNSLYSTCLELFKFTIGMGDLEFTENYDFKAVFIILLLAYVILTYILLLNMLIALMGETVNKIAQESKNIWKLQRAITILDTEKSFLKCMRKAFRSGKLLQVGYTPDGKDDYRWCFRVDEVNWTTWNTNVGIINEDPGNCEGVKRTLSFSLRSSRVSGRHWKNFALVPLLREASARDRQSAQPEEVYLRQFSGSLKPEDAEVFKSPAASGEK
#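 TRPV1-expressing cells were cultured overnight at 35.5C and loaded with Fluo-8 calcium dye for 40 to 90 min at room temperature. After a 10 s baseline, compound was added and calcium influx was read kinetically for 3 min (ex 480/em 520 nm).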
# TRPML1 inh = blocks the human TRPML1 channel; TRPML1-inducible cells, Ca2+ dye fluorescence, FDSS; hits give low values; inhibition of EC80 agonist-evoked calcium signal; AID 624415; 390,000 compounds, 0.02% hits; Q9GZU1; activity change, negative = inhibition, % (test concentration not listed); in the data active means activity change below about -50%; inconclusive means about -30% to -50%; inactive means above about -30%;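 also: stimulus is agonist 54-4 at its EC80 concentration; % is scaled to controls: 0 for no effect and ±100 for the full control effect; compound concentration not given in the record; the text of the record puts the active cut at -80%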
#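 TRPML1-DL cells, Tet-induced overnight (~16 h, 37 °C) at 1,500 cells/well, were loaded with Ca8 no-wash dye plus quencher for 45-90 min at room temperature. Compounds were pinned during FDSS kinetic reading; agonist 54-4 at EC80 (4 uM final) then added.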
# ClpP mod = qHTS Assay for Activators of ClpP | 340,000 compounds, 1.9% hits | purified B. subtilis ClpP, FRET peptide cleavage, 20 min | AID 651965, 2013 | Potency, µM (series often up to 57.5 µM), without a hit: top-dose activity change, negative = active | ATP-dependent Clp protease proteolytic subunit (Bacillus subtilis (strain 168)), P80244; active = well fitted falling curve with a large enough effect; inconclusive = small, poorly fitted or top-dose-only effect; inactive = no such curve, though single readings can be large or run the other way; also: potency is read from the fitted curve at half-maximal effect; the source files actives as falling curves though it sought activators and does not explain the sign; nearly all actives have a fitted effect of over 65% in size; many hits overshoot -100%
# Target sequence (P80244 whole entry, looked up): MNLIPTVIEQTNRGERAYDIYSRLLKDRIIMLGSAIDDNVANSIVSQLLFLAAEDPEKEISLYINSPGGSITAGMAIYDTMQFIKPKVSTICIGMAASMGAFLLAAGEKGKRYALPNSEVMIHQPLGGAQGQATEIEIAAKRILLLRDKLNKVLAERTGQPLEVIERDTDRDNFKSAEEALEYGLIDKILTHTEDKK
#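 Buffer: 100 mM Tris/HCl pH8, 100 mM KCl, 0.05% low protease BSA, 2.5% glycerol, 0.01% Tween-20. ClpP 10 microg/mL final; 20 min RT; delta FRET normalized to ADEP and DMSO controls.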
# Menin-MLL FL inh = menin-MLL binding inhibition, fluorescein peptide. AID 1766. FP activity change, % at 61.4 µM. 290,000 tested, under 10 active. Fluorescence polarization, fluorescein-MLL peptide displacement from menin; inconclusive = falling polarisation curve, or a change in total fluorescence; inactive = total fluorescence flat and polarisation flat or rising; no compound was filed as active; the % refers to the polarisation; negative = inhibition;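 also: % of control where 0% means no effect; inhibitors lower the polarisation; unlabelled MLL peptide was the positive control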
# * hit, by the source's call; ? = inconclusive; . = no result given; & = joins results of further samples; [ ] = remark or other dose.
SMILES,gsp antag,gsp agonist,Sfp inh,TRPV1 PAM,TRPML1 inh,ClpP mod,Menin-MLL FL inh
CCCCNC(=O)c1c[nH]c2ccc(S(=O)(=O)Nc3ccc(OCC)cc3)cc2c1=O,14.5%,27.0%,4.8%,-6.6,0.7,0.4%,2.7
COc1ccc(N(C)S(=O)(=O)c2cccc(C(=O)OC(C(=O)Nc3cc(C)cc(C)c3)c3ccccc3)c2)cc1 (stereo not given),8.0%,-60.9%[inhibitor],12.2%,0.5,-9.3,-1.5%,7.6
CC(=O)c1ccc(S(=O)(=O)Nc2cccc(-n3cnnn3)c2)cc1,-20.0%,?,5.9%,-4.7,-8.6,0.4%,-3.7
COC(=O)CCCCCNC(=S)Nc1ccc2[nH]c(=O)[nH]c2c1,-10.8%,18.1%,3.2%,-7.3,-3.5,0.5%,-1.2
CCCC(NC(=O)C(C)N1CCN(S(=O)(=O)c2ccccc2)CC1)c1ccccc1 (stereo not given),-7.0%,-6.0%,.,5.5,7.3,-1.5%,.
CCOC(=O)C(NC(=O)Nc1ccc(O)cc1)(c1ccccc1)C(F)(F)F (stereo not given),6.3%,-12.8%,-3.4%,10.7,7.6,?,3.3
O=C(NNC(=O)c1cc([N+](=O)[O-])ccc1Cl)c1cccnc1,-0.5%,?,1.9%,3.3,-14.1,2.2%,.
Cc1cccn2c(CNCCc3ccco3)c(C(=O)N3CCOCC3)nc12,6.0%,-112.7%[inhibitor],0.7%,2.2,-17.1,-2.8%,-4.5
CCOc1ccc(NC(=S)NCc2ccc3c(c2)OCO3)cc1,-4.9%,-7.7%[15.4 µM],-13.0%,-7.1,15.8,.,6.9
CCc1ccc(CN2CCC(n3nccc3NC(=O)Cc3ccccc3)CC2)o1,-8.4%,10.7%,6.1%,3.2,5.4,-1.1%,.
COc1ccc(OC)c(C(=O)NC(CC(N)=O)c2ccc(N3CCC(Cc4ccccc4)CC3)c([N+](=O)[O-])c2)c1 (stereo not given),-4.9%,.,7.0%,-5.7,9.8,-22.7%,-1.4
CCSS(=O)(=O)c1cccc2cccnc12,-4.3%,-1.4%[15.4 µM],20µM*,2.2,0.1,.,1.4
CCN(CC)Cc1c(O)ccc2c(=O)c(-c3ccccc3OC)coc12,5.3%,-1.8%[15.4 µM],25.3%,-3.3,16.1,0.0%,0.5
CCn1c(Cc2ccc(OC)cc2)nnc1SCc1nc2ccccc2c(=O)[nH]1,-3.6%,10.5%,29.2%,0.9,2.9,.,-7.4
CCCn1c(SCC(=O)Nc2ccccc2N2CCOCC2)nc2c1c(=O)n(C)c(=O)n2C,-2.9%,14.8%,5.7%,-1.5,9.3,-1.7%,0.1
CCN(Cc1ccc(OC)c(COC)c1)CC1CCCN(CCc2cccc(F)c2)C1 (stereo not given),-16.6%,-3.0%,4.3%,?,4.8,0.3%,-0.3
Cc1ccc2c(CNCc3ccco3)cc(=O)oc2c1,-4.2%,26.2%,4.1%,-22.5,2.6,-2.0%,0.8
O=C(CSc1n[nH]c(=O)n1-c1ccc2c(c1)OCCO2)Nc1ccccc1,-7.7%,-6.3%[15.4 µM],20.8%,2.3,8.6,.,0.3
CCOC(=O)CNC(=O)CSc1nc(-c2ccc(C)cc2)ns1,11.2µM*,-29.4%[15.4 µM],10.5%,3.3,-24.7,.,6.2
COc1cccc(C(=O)n2cnnc2N)c1OC,-8.1%,-8.4%,12.9%,7.5,1.8,6.7%,2.6
CCOC(=O)c1cc(NC(=O)C2C3CCC(O3)C2C(=O)O)cc(C(=O)OCC)c1 (stereo not given),13.8%,?,-6.0%,13.5,9.7,-8.1%,-2.4
C=CCN1CCN(C(CC(C)C)c2nnnn2CCOC)CC1 (stereo not given),-2.9%,22.8%,-0.9%,23.3,24.1,-5.2%,2.6
COC(=O)COc1cccc(-n2cnnn2)c1,4.9%,-55.1%[inhibitor],7.9%,4.6,3.2,-4.0%,1.7
COc1cc2cc(CN(CCO)S(=O)(=O)c3ccccc3)c(=O)[nH]c2cc1OC,12.5%,7.9%,10.6%,-5.1,-6.6,1.7%,1.7
CC(=O)Nc1c(Cl)n(C(C)=O)c2ccccc12,6.8%,-28.1%,6.5%,1.2,0.6,0.5%,-2.5
OCCC1CN(Cc2nc3ccccc3s2)CCN1CCc1ccccc1 (stereo not given),-0.4%,-12.1%[15.4 µM],-2.8%,-20.3,25.6,.,-0.7
O=C(Nc1ccc(Br)cc1)c1ccc(Br)c(S(=O)(=O)Nc2cccnc2)c1,-14.2%,-40.3%[inhibitor],-26.1%,-4.2,-2.7,-2.6%,4.5
COCC1CCCCC1OS(N)(=O)=O (stereo not given),8.2%,.,14.3%,12.8,-1.3,-0.1%,2.3
COc1cc(OC)c2c(-c3cccc(/C=C/c4ccc(F)cc4)c3)cc(=O)oc2c1,3.6%,.,-12.1%,.,3.6,?,-0.3
CN(C)/N=C1\C(=O)N(CN2CCN(c3ccccc3)CC2)c2ccccc21,15.8%,-35.7%[inhibitor],.,-3.4,-5.0,-0.8%,.
N#CCCNS(=O)(=O)c1ccc(C(=O)OCC(=O)Nc2ccc3c(c2)OCO3)cc1,-11.2%,-26.5%,.,-8.1,-8.5,0.9%,.
O=C(C1=C[C@H](c2ccc(C(F)(F)F)cc2)C[C@H](OCCCCO)O1)N1CCN(Cc2ccccc2)CC1,-6.8%,6.5%,0.3%,-19.6,-7.8,2.7%,-0.1
O=C(c1cc(N2CCCCC2)nc2ccccc12)N1CCOCC1,2.1%,-53.0%[inhibitor],2.2%,-11.3,4.2,-13.9%,5.7
CC(=O)N1CCc2cc(S(=O)(=O)CCC(=O)N3CCN(c4ccccc4F)CC3)ccc21,1.4%,13.4%,11.7%,21.5,-28.4&36.4,-0.3%&-3.5%,3.4
CN(C(=O)CN(C)S(=O)(=O)c1ccc(F)cc1)c1c(N)n(Cc2ccccc2)c(=O)[nH]c1=O,10.8%,-11.6%,.,0.2,1.9,-5.0%,.
Cc1cc2cc(CNC(=O)c3ccc(Br)o3)ccc2n1C,7.0%,27.2%,28.2µM*,-4.4,15.1,-5.0%,?
Cc1ccc(NC(=O)CSc2nnc(-c3cccs3)o2)cc1S(=O)(=O)N(C)C,.,.,20.5%,3.4,.,.,4.3
O=C(COC(=O)CCC(=O)c1cccs1)NC(=O)c1ccc(OC(F)F)cc1,1.2%,-21.1%,16.6%,1.1,23.9,-1.7%,2.0
CC(C)N(C(=O)[C@H]1C[C@H](CC(=O)NCCCN(C)C)C(=O)N2CCc3c([nH]c4ccc(Cl)cc34)[C@]12C)C(C)C,9.7%,.,.,.,-6.4,-0.7%,.
CC1=CC2=NC(=O)CC(C)(C(=O)N(CC(=O)NC3CCCC3)Cc3ccccc3)N2C=C1 (stereo not given),.,-1.5%[15.4 µM],10.3%,?,4.4,.,-5.6
Cc1ccc(NC(=S)NC(=O)c2cncc(Br)c2)c(C)c1,-4.5%,-3.7%,.,.,-9.9,1.4%,.
Cc1nc(CS(=O)(=O)c2ccccc2)cc(Sc2ccc(Cl)cc2Cl)n1,-11.1%,-52.0%[inhibitor],-0.5%,-6.8,17.4,-1.1%,3.1
Cn1c(Cn2c(=O)sc3ccccc32)nnc1SCC(=O)Nc1cccc(Cl)c1,-6.9%,-46.5%[inhibitor],17.8%,2.3,2.2,1.1%,0.1
O=C(CSc1nn(-c2ccc(Cl)cc2)c(=S)s1)N1CCN(C(=O)c2ccco2)CC1,-2.4%,-16.1%,-9.9%,26.9,10.7,-2.4%,2.1
COc1ccc(-c2cc(C)no2)cc1S(=O)(=O)NCc1ccc(OC(C)C)cc1,-2.7%,?,18.0%,-5.1,11.8&22.8,1.0%&-5.6%,-0.8
Cc1nc(-c2ccc(NS(C)(=O)=O)cc2)cs1,7.5%,-0.9%,9.7%,2.3,5.8,-2.5%,-1.2
COc1cc(Cl)ccc1OCc1cc(C(=O)N2C[C@]3(C)C[C@H]2CC(C)(C)C3)no1,-36.3%,21.0%,-3.0%,-14.4,16.4,1.9%,12.3
Clc1ccc(/C=C/c2nc3ccccc3[nH]2)c(Cl)c1,?,-11.5%,2.7%,-15.8,-3.0,19.1%,0.5
CCc1ccc(-c2nc(SCC(=O)N(C)C3CCS(=O)(=O)C3)n[nH]2)cc1 (stereo not given),10.3%,-5.7%,.,-2.0,4.9,0.3%,.
COC(=O)c1sccc1NC(=O)CSc1ccc(Cl)cc1,-16.2%,-70.6%[inhibitor],4.0%,-12.5,-3.5,-2.9%,-0.3
CCN(CC)Cc1c(O)c(Cl)cc2c(C)cc(=O)oc12,-6.0%,?,19.8%,2.7,3.5,.,?
COc1cc(/C=C(\CCC(=O)O)c2nc3ccccc3s2)ccc1OCC(=O)Nc1c(Cl)cccc1Cl,28.2µM*,-47.7%[inhibitor],.,.,-3.2,4.3%,.
O=c1c2c3c(sc2[nH]c(=S)n1Cc1ccco1)CCC3,-8.1%,?,50.1µM*,-5.4,.,-4.4%,11.8
COCCNC(=O)c1onc(CSc2ccc(F)cc2)c1C(=O)NCCOC,2.3%,.,17.3%,?,-17.7,-1.7%,0.3
N#Cc1ccc(S(=O)(=O)N2CCN(CN3C(=O)CC4(CCCC4)C3=O)CC2)cc1,.,-22.4%,.,.,-14.7,2.1%,.
CC(=O)NC(c1ccccc1)c1cc([N+](=O)[O-])c2cccnc2c1O (stereo not given),?,14.7%[15.4 µM],2.24µM*,3.6,-4.4,.,-1.2
Cc1nn(CCOc2ccccc2)c(=O)n1-c1ccccc1F,3.0%,-6.0%,-7.6%,18.3,-1.5,1.4%,-5.8
CCC(OC(=O)C(CC(C)C)NC(=O)c1ccccc1)C(=O)Nc1nnc(C)s1 (stereo not given),-29.3%,.,.,3.8,-1.4,-0.7%,.
Nc1nc(NCC2CCCO2)nc(Nc2ccccc2)c1[N+](=O)[O-] (stereo not given),18.7%,-32.1%[inhibitor],-2.6%,11.2,10.2,-1.1%,11.3
